UUG fidelity – alters start codon recognition fidelity in yeast; S. cerevisiae UUG-firefly luciferase reporter, luminescence/redox ratio; activity score, % at 18.7 µM; 0.13% of 350,000 active; AID 602363;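 active means replicate mean at a twofold rise or more, about +100% in these data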;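 further: firefly luciferase made from a UUG start codon reports start codon fidelity; reporter light over untreated wells divided by growth signal over untreated wells; some hits fall short of that in this replicate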
PABP polyA inh – blocks human PABP binding to poly(A) RNA; 1% of 290,000 active; P11940; inhibition, % at 35 µM; AID 2014; fluorescence polarization;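 active means 50% or more with normal probe brightness, or confirmed in later tests; inconclusive means above 50% with abnormal brightness, or retests that disagree; inactive means below 50% or failed in later tests; about a fifth of its hits are not listed in these tables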;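 further: calls also rest on retests at 20 µM and on dose response follow-up; controls were probe without protein and protein plus probe with vehicle; some compounds called inactive have numbers as strong as hits; many hits fall short of the cut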
Target sequence (P11940 whole entry, looked up): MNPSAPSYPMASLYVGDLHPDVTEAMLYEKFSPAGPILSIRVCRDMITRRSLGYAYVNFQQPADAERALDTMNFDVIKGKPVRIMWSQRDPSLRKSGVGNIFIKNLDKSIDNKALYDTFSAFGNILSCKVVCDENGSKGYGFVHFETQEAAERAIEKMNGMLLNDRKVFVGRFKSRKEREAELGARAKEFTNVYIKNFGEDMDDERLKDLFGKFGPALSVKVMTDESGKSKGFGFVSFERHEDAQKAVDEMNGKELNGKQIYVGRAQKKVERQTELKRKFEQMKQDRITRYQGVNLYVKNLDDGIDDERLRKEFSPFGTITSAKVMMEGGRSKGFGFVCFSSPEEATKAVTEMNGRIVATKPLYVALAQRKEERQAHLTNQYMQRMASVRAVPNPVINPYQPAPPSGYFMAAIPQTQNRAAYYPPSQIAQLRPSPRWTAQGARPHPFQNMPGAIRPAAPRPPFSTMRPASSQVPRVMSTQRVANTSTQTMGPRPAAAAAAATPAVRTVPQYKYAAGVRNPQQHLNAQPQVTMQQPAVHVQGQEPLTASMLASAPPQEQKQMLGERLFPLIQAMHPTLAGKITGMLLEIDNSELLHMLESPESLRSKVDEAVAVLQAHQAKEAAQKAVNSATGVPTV
eIF4H inh – inhibitors of RNA binding by human eIF4H | eIF4H fluorescence polarization binding assay | Q15056 | inhibition, % at 35 µM | 0.94% of 290,000 active;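 active means 50% or more with normal probe brightness, or confirmed in later tests; inconclusive means above 50% with abnormal brightness, or retests that disagree; inactive means below 50% or failed in later tests; about a fifth of its hits are not listed in these tables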;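 further: calls also rest on retests at 20 µM and on dose response follow-up; 0% = protein and probe with vehicle and 100% = probe without protein; strong numbers were not always called active; many hits fall short of the cut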
MT1-MMP act inh – inhibitors of human MT1-MMP activation | P50281 | HT1080 RFP-PRO-GFP cells, GFP/RFP ratio fluorescence, overnight; percent of plate control window, DMSO zero | GFP/RFP ratio change, % at 20 µM | 0.061% of 360,000 active;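 active means GFP/RFP ratio change of at least 30% with cell ATP level not reduced by more than half and red fluorescence within 50% of control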; further: strong numbers were not always called active
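Compound: 20 µM single dose, 1% DMSO / System: HT1080 RFP-PRO-GFP cells / Controls: DMSO and RFP-L50D-GFP cell wells / Read-out basis: GFP/RFP fluorescence ratio / Schedule: overnight compound exposure at 37 °C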
Rce1 inhib – inhibitors of yeast Ras-converting enzyme; 0.27% of 290,000 active; yeast membranes, quenched prenylated peptide cleavage fluorescence; calls only;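 active means fall in fluorescence gain of 50% or more versus controls, with final raw signal at or below 3038400; inconclusive means same 50% fall but final raw signal above 3038400; inactive means fall in fluorescence gain under 50%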;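 further: plate controls were neutral control wells for no effect and wells lacking membranes for full effect; tested at 10 µM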
Target sequence (Q03530 whole entry, looked up): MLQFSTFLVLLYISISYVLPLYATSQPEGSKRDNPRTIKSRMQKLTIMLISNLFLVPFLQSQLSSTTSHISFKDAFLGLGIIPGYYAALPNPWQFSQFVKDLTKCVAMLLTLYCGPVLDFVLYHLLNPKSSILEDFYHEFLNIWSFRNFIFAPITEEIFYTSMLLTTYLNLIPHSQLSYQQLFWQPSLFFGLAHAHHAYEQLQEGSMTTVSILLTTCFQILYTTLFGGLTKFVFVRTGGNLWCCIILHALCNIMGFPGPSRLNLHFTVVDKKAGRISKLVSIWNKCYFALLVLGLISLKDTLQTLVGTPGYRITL
Env fusion inh – inhibitors of HIV Env-mediated cell fusion | HeLa-JRFL Env/CEM21 cell fusion, luciferase | inhibition, % at 12.3 µM | 1.1% of 360,000 active | AID 651610;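 active means mean replicate inhibition score of at least 50 and every replicate individually at or above 50; inconclusive means only one of the two criteria met; inactive means mean below 50 and not all replicates reaching 50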;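 further: 0% = plate neutral controls and 100% = maraviroc near 300 nM; one replicate is shown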
CSC inhib – cancer stem cell inhibition; cancer stem cell-like cells viability, luminescence; AID 2717; 1.1% of 300,000 active; inhibition, % at 7.5 µM;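 active means mean at 75% or more and at least half the replicates too; inconclusive means mean and replicates disagree; tested in HMLE shEcad cells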;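 further: 0% = median of negative and 100% = median of positive control wells; the first replicate is given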
eIF4H inh retest – further read-out of eIF4H inh, marked with its call; inhibition, %; compound at 20 µM; confirmation average;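 mean of two retest wells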
PABP polyA inh retest – recorded beside PABP polyA inh, whose call it bears; inhibition, %; compound at 20 µM; confirmation repeats;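 mean of two retest wells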
MT1-MMP act inh RFP – second read-out of MT1-MMP act inh, no call of its own (marks repeat the call); RFP signal change, %; measured here: RFP expression control read;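 0 = vehicle wells; hits needed this value within 50% of zero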
* marks the source's active call; other numbers are inactive results; i = inactive; ? = inconclusive; nt = no result given.

SMILES	UUG fidelity	PABP polyA inh	eIF4H inh	MT1-MMP act inh	MT1-MMP act inh RFP	Rce1 inhib	Env fusion inh	CSC inhib	others
Cc1cc(C)cc(OCCCCCNCCO)c1	-16.3	2.4	-3.7	1.8	1.5	i	-14.6	14.6
O=C(c1ccco1)N1CCN(CC(O)Cn2c3ccccc3c3ccccc32)CC1 (stereo not given)	-1.8	-11.8	15.5	-2.7	-4.4	i	-52.7	21.2
CCS(=O)(=O)N1CCN(Cc2c[nH]c3ccccc23)CC1	nt	7.2	8.7	-0.2	-0.5	i	-11.9	-3.1
COc1ccccc1-c1nnc(SCC(=O)c2ccc(C3CCCCC3)cc2)n1Cc1ccco1	-14.8	7.0	1.1	-4.7	-7.8	i	nt	-13.5
COc1ccc(N(C)C(=O)c2cnc(N3CCN(c4ncccn4)CC3)c3ccccc23)cc1	6.0	2.7	0.5	8.8	0.1	i	-41.2	-13.5
CCOc1ccccc1NC(=O)C1=C(C)NC(=O)NC1c1cccs1 (stereo not given)	nt	4.8	-6.1	-0.8	-0.5	i	6.1	6.0
C=CCNC(=O)c1ccc(N(Cc2ccccc2)S(C)(=O)=O)cc1	1.4	-1.8	1.1	1.3	2.0	i	14.6	6.9
O=C(O)CSc1nnc(Cn2cnc3ccccc32)n1CCc1ccccc1	-15.9	-0.5	-3.0	-1.1	-0.4	i	-44.0	nt
Cc1ccc(CNC(=O)Cn2ccc(NC(=O)OCc3ccccc3)nc2=O)o1	-11.4	nt	nt	2.6	1.4	nt	-4.7	4.6
O=S(=O)(c1ccc(Cl)cc1)N1CCCC1c1nc2ccccc2s1 (stereo not given)	-8.7	-8.5	-12.1	-5.1	-5.2	i	-9.9	12.5
Cc1ccc(NC2CCCN(C(=O)c3ccc(F)cc3)C2)cc1C (stereo not given)	-20.8	-6.5	-12.6	0.2	1.6	i	17.8	-13.0
COc1ccc(NS(=O)(=O)c2cccc(C(=O)N/N=C/c3c(F)c(F)c(F)c(F)c3F)c2)cc1	-8.0	nt	nt	3.5	0.5	nt	2.7	nt
Cc1cccc(NC(=O)C2CCN(S(=O)(=O)c3ccc(Cl)cc3)CC2)n1	-18.6	nt	nt	6.2	-7.0	i	1.2	2.6
O=C(C1CCN(S(=O)(=O)c2cccc3cccnc23)CC1)N1CCN(C2CCCCC2)CC1	-13.1	-18.2	0.2	1.6	2.3	nt	nt	nt
COC(=O)CSc1nc(NC#N)nc(NC(C)(C)C)n1	nt	1.8	-7.9	1.9	5.2	i	-9.4	-11.5
CCC(=O)N[C@@H]1CC(C(C)(C)NC(=O)CC)CC=C1C (stereo not given in full)	-17.6	-11.2	-0.5	2.7	3.2	i	-19.6	-4.5
COCCCN(CC(=O)Nc1ccc(N2CCOCC2)cc1)S(=O)(=O)c1ccc(Cl)cc1	nt	-11.5	2.0	-1.2	-0.3	i	0.0	-5.3
CC1(C)CC(O)(CCNCc2ccc3c(c2)OCO3)CCO1 (stereo not given)	3.0	-3.0	-1.5	6.7	5.3	i	-60.4	-9.9
COc1cc(OC)cc(C(=O)N2CCC(N3CCCCCC3)CC2)c1	3.0	7.3	12.1	4.2	0.5	i	14.8	-0.8
Cc1ccc(S(=O)(=O)N2Cc3ccccc3CC2C(=O)NC(C)(C)C)cc1 (stereo not given)	-9.8	3.0	-4.8	-7.1	-6.2	i	9.6	1.1

A draw from above in order of formula weight, low to high:
SMILES	UUG fidelity	PABP polyA inh	eIF4H inh	MT1-MMP act inh	MT1-MMP act inh RFP	Rce1 inhib	Env fusion inh	CSC inhib	others
C=CCNC(=O)c1ccc(N(Cc2ccccc2)S(C)(=O)=O)cc1	1.4	-1.8	1.1	1.3	2.0	i	14.6	6.9
COc1ccc(N(C)C(=O)c2cnc(N3CCN(c4ncccn4)CC3)c3ccccc23)cc1	6.0	2.7	0.5	8.8	0.1	i	-41.2	-13.5
COCCCN(CC(=O)Nc1ccc(N2CCOCC2)cc1)S(=O)(=O)c1ccc(Cl)cc1	nt	-11.5	2.0	-1.2	-0.3	i	0.0	-5.3

Remaining list, next part:
SMILES	UUG fidelity	PABP polyA inh	eIF4H inh	MT1-MMP act inh	MT1-MMP act inh RFP	Rce1 inhib	Env fusion inh	CSC inhib	others
COC(=O)c1ccc(NC2(C#N)C(=O)Nc3ccccc32)cc1 (stereo not given)	nt	-12.3	0.5	-7.4	1.4	i	-111.2	9.8
NC(=O)c1c(NC(=O)CSc2nnc(-c3ccco3)n2N)sc2c1CCCC2	nt	43.3*	65.9*	-2.3	2.8	i	nt	-17.8	eIF4H inh retest=96.5*;PABP polyA inh retest=90.6*
Cc1cc(=O)[nH]c(N/N=C/c2ccccc2Cl)n1	-10.3	14.7	6.9	-3.4	0.7	i	-9.5	2.6
COc1ccc(-n2c3c(cc(C(=O)NC4CCSC4=O)c2=O)C(=O)CC(C)(C)C3)cc1 (stereo not given)	-7.3	1.8	-11.6	0.0	0.7	i	nt	-3.5
COc1ccc(N2C(=O)CCC2=O)c(OC)c1	nt	-10.5	-1.0	-0.6	1.1	i	-1.6	-12.4
COc1ccc(NC(=O)c2ccc3[nH]c(C)c(C)c3c2)cc1	-12.0	11.6	-4.4	8.2	0.1	i	-24.1	10.2
Cn1nnc(NC(=O)c2ccccc2)n1	-7.6	7.0	-2.4	7.7	9.5	i	nt	-1.2
Cc1onc(-c2ccccc2)c1C(=O)Nc1ccc(S(=O)(=O)N2CCCCC2)cc1	-15.8	-20.4	-5.8	-3.9	-11.5	i	-12.3	nt
Cc1cccc(C(=O)OC2CCOC2=O)c1O (stereo not given)	-1.8	9.0	0.4	-2.3	2.2	i	3.1	-21.6
COCCn1c(SCc2ccccc2F)nc2ccccc2c1=O	5.7	-9.3	-0.1	-4.9	-6.6	i	16.4	21.5
COc1ccc(C2c3[nH]c4ccccc4c3CCN2CCCn2cccn2)c(C)c1C (stereo not given)	-6.6	2.9	5.4	-11.6	-11.2	i	-77.1	4.2
CCOc1ccc(C(=O)NC2CCN(C(=O)NCc3ccccc3)CC2)cc1	1.5	-1.0	3.6	3.1	1.4	i	-72.8	-3.6
CCN(CC)CCCNC(=O)c1cn(C)c2ccc(S(=O)(=O)N(C)C3CCCCC3)cc2c1=O	-18.6	-7.0	-9.3	-3.6	-1.3	i	0.4	0.2
O=C(CCc1ccc(S(=O)(=O)NCc2ccccc2)cc1)N1CCN(Cc2ccc3c(c2)OCO3)CC1	-7.6	-4.8	-12.3	2.6	-8.6	i	-4.4	nt
C=CC[n+]1ccc2ccccc2c1C	nt	-2.0	6.1	0.0	1.7	i	-11.3	-16.3
COc1ccccc1OCC(=O)Nc1cc2c(cc1C(=O)O)OCCCO2	-9.0	5.9	-4.1	2.0	5.5	nt	-10.1	-3.6
CCCC1CCC(c2ccc(C(=O)NN)cc2)CC1 (stereo not given)	nt	-3.7	-12.5	-1.8	0.2	i	-14.3	38.7
Cc1cc(/C=N/NC(N)=S)c(O)c(/C=N/NC(N)=S)c1	-29.5	?	?	-122.3	3.7	i	15.6	12.7
O=C(COc1ccc(Cl)cc1)NCCSc1ccccc1	7.3	-0.4	4.2	2.3	4.4	i	nt	9.3
CCCn1c(-c2cccs2)nc2nc3ccccc3nc21	-14.5	-8.9	2.0	-1.1	-0.3	i	-63.4	20.2
COc1ccc(/C=C(\NC(=O)c2ccccc2)C(=O)NCC2CCCO2)cc1 (stereo not given)	0.8	10.2	-14.7	-0.7	0.8	i	-2.6	-13.5
CCCCOC(=O)c1ccc(NC(=O)c2c(N)n(C)c(=O)[nH]c2=O)cc1	nt	nt	nt	nt	nt	i	25.2	-15.8
O=C(CN1CCCCCC1)Nc1ccccc1C(=O)Nc1ccccc1	nt	nt	nt	1.7	6.2	i	20.9	-14.9
CCc1cccc(N(C(=O)c2csnn2)C(C(=O)NC(C)(C)CC)c2ccccn2)c1 (stereo not given)	nt	7.2	-4.9	-0.5	-0.7	i	19.8	-8.4
COC1(OC)N=C(N)C2(C#N)C(c3cccc(Oc4ccccc4)c3)C12C#N (stereo not given)	-13.8	-4.2	3.8	1.0	-0.7	i	nt	1.7
CCN(CC)C(=O)C(=O)N/N=C/c1ccc(C(=O)O)cc1	-2.7	26.6	-11.7	0.5	3.4	i	13.6	8.7
COCCN1C(=O)C(=O)/C(=C(/O)c2ccc(S(=O)(=O)N3CCOCC3)cc2)C1c1cccc([N+](=O)[O-])c1 (stereo not given)	-15.3	2.5	-9.3	4.2	2.6	i	nt	-14.3
Cc1ccc2nc(Cl)c3cc(C(=O)NCCCN4CCCC4)sc3c2c1	0.5	-9.3	6.2	1.2	5.4	i	-44.5	33.3
Cn1c(NC(=O)c2ccc3c(c2)OCO3)cc(=O)n(C)c1=O	-17.7	5.6	-6.1	1.1	1.2	i	-20.5	-17.9
O=C(Nc1ccc(Cl)cc1)Nc1ccccc1C(=O)O	-26.4	-1.0	6.9	5.4	0.1	i	-52.3	-2.8
CCCCn1c(N)c(N(CC)C(=O)c2ccc(N3CCCC3=O)cc2)c(=O)[nH]c1=O	-18.2	nt	nt	7.3	-6.3	i	1.3	1.2
CCCCNS(=O)(=O)c1ccc2nc(SCC(=O)Nc3sccc3C#N)[nH]c2c1	-6.7	13.8	-7.1	-17.7	-19.2	i	12.4	20.3
CC(Oc1ccccc1)C(=O)Nc1nc2c(s1)C(=O)CC(C)(C)C2 (stereo not given)	-9.4	-9.1	-4.4	10.1	0.4	i	nt	-10.5
COc1ccc(N(C(=O)C(C)C)S(=O)(=O)c2ccc3c(c2)n(C)c(=O)n3C)cc1	nt	10.8	5.8	-1.1	0.9	i	nt	-16.6
CC1C(=O)N2CCCc3cc(S(=O)(=O)NCc4ccccc4Cl)cc1c32 (stereo not given)	14.1	nt	nt	1.2	-0.2	i	3.1	-21.0
O=C(CN(c1ccccc1F)S(=O)(=O)c1ccccc1)NC1CCCCCC1	nt	4.2	5.5	-4.6	-6.5	i	nt	nt
COc1ccc(S(=O)(=O)N2CCN(C)CC2c2ccccc2)cc1OC (stereo not given)	-5.9	nt	nt	-0.8	0.7	nt	-0.5	nt
CCOC(=O)Nc1ccc2c(c1)N(C(=O)C(C)N1CCCC1)c1ccccc1CC2 (stereo not given)	nt	7.7	-2.6	-1.1	0.5	i	nt	-5.4
CCOC(=O)Cn1nnnc1C(C(C)C)N(Cc1cccs1)Cc1cc2cc(C)ccc2[nH]c1=O (stereo not given)	-15.4	11.6	-4.1	-25.1	-16.5	i	-35.3	14.5
COC(=O)c1ccc(NC(=O)CSc2n[nH]c(-c3ccncc3)n2)cc1	-22.1	-5.4	-11.7	-1.2	1.9	i	nt	nt
COc1ccccc1CNS(=O)(=O)c1c(C)[nH]c(C)c1C(=O)N1CCCCC1	-4.6	-0.8	-8.4	-0.9	4.8	i	7.8	-14.6
CCCNC(=O)Nc1ccccc1SC	nt	-10.7	-3.6	-1.0	6.9	nt	13.7	-1.7
COc1cccc(NC(=O)CN(C)C(=O)C2CCN(C(=O)c3ccccc3C)CC2)c1	3.4	nt	nt	0.4	0.8	i	3.8	-18.1
COc1cc(C2C(C(=O)c3ccco3)=C(O)C(=O)N2CC2CCCO2)ccc1O (stereo not given)	0.5	7.7	-6.7	-1.4	3.6	i	2.9	-11.3
O=C1c2ccccc2-c2cccc(C(=O)N3CCCCC3)c21	nt	1.4	-5.4	-2.0	1.1	i	1.9	-2.7
CN(C)c1ccc(/C=N/n2ncc3ccccc32)cc1	-55.2	-7.3	4.4	-6.8	2.2	i	nt	59.0
NS(=O)(=O)c1ccc(N2CCN(C(=O)c3ccco3)CC2)nc1	-4.3	nt	nt	0.8	1.6	nt	nt	7.1

Screening data as filed in PubChem BioAssay.
